# Compound activity as filed in PubChem BioAssay.
# Bead autofluor: compound fluorescence in toxin protease inhibitor counterscreen; compound autofluorescence counterscreen, microsphere flow cytometry; hits give high values; fluorescence intensity (no concentration beside the values); 360,000 tested, 3.1% active; AID 624483;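 active = at least 3 SD above the mean of all compounds, about 16000 in these data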;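 also: 100 nL of 1 mM stock went into each well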
# Mtb hypoxia inh: reduces hypoxia-regulated biosensor signal in M. tuberculosis; 300,000 tested, 0.1% active; fluorescence inhibition, % (concentration not given with the values); M. tuberculosis hypoxia-regulated fluorescent reporter, fluorescence;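 active = 35 to 45% if threefold the growth effect, above 45% if 1.5-fold the growth effect; inactive = the rest, general growth blockers included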;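 also: wells of about 50 µL received 100 nL stock; 0% = vehicle wells and 100% = reference inhibitor wells; whole bacteria with a GFP reporter of the hypoxia response; strong numbers were not always called active; many hits fall short of the cut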
# ugtP null kill: growth inhibition of S. aureus ugtP deletion strain. S. aureus RN4220 ugtP deletion, OD600 growth, 16 h; some inactives read as strong as hits. growth inhibition, % (test concentration not listed). 330,000 tested, 0.54% active. AID 1259309;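 active = z-score under -3 and OD600 up to 0.15 on both plates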;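 also: plate controls were untreated wells for no effect and antibiotic for full effect; wells of about 80 µL received 100 nL stock; the first replicate is given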
# PrP UTR inh: inhibition of PrP 5' UTR reporter expression; cell-based PrP 5' UTR mRNA reporter, plate reader; 340,000 tested, 0.35% active; AID 488862; inhibition, % (test concentration not listed);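 active = every replicate at 50% or more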;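 also: 0 = median of the neutral control wells; tested in H4 reporter cells; numbers are from one replicate; inactives centre near -14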
# Sa RN4220 lethal: S. aureus RN4220 growth inhibition. OD600, 16 h. inhibition, % (no concentration beside the values). 330,000 tested, 0.33% active. AID 1259311;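 active = z-score of -3 or lower and OD600 up to 0.18 on both plates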;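 also: plate controls were untreated cells for no effect and reference antibiotic for full effect; stock transfer was 100 nL into about 80 µL; one replicate is shown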
# BJeLR lethal: kills HRASV12-expressing BJeLR cells. BJeLR (HRASV12) viability, CellTiter-Glo ATP luminescence, 48 h; reference of the scale not given here. AID 1554. inhibition, % (concentration not given with the values). 300,000 tested, 0.17% active;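 active = replicate mean above 50%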;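 also: 50 nL library stock added to about 25 µL; numbers are from one replicate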
# Mtb hypoxia inh growth: recorded beside Mtb hypoxia inh, whose call it bears; growth inhibition, %; measured here: M. tuberculosis growth (absorbance);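 0% = vehicle and 100% = reference antibiotic; read after six days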
# The depositor's hits bear a star; x = not tested or not shown.
# Field names: A = Bead autofluor; B = Mtb hypoxia inh; C = Mtb hypoxia inh growth; D = ugtP null kill; E = PrP UTR inh; F = Sa RN4220 lethal; G = BJeLR lethal
COc1ccc(/C=C2\SC(=O)N(CCNC(=O)Cc3coc4cc(OC)ccc34)C2=O)cc1
  A: 2328; B: 11; C: 4; D: -1; E: -26; F: 2.9; G: 0
O=C(C[n+]1cccc(/C=N/O)c1)N1CCCc2ccccc21
  A: 2409; B: x; C: x; D: x; E: -21; F: x; G: 4
Nc1cc(S(=O)(=O)O)cc([N+](=O)[O-])c1O
  A: 5182; B: -6; C: -3; D: -7; E: -16; F: 5.9; G: 3
Cc1cc(=O)oc2cc(OCC(=O)N3CC[C@@]4(O)CCCC[C@H]4C3)ccc12
  A: 4116; B: x; C: x; D: 4; E: 10; F: 4.5; G: -1
O=C(CN=C1NS(=O)(=O)c2ccccc21)OCC(=O)c1ccccc1
  A: 4652; B: 1; C: 11; D: 0; E: -21; F: 1.9; G: 5
COc1cc(CNCc2ccc(C)cc2)cc(OC)c1OC
  A: 3338; B: 2; C: 4; D: 15; E: 2; F: 2.1; G: -6
CCCNC(=O)NCc1ccc(N2CCCC2=O)cc1
  A: 8133; B: 2; C: -1; D: 4; E: -5; F: 0.9; G: -8
O=C(NC1CCCC1)C(c1cccnc1)N(C(=O)c1ccco1)c1ccc(F)cc1 (centres undefined)
  A: 3140; B: 14; C: 5; D: 2; E: -18; F: 1.7; G: -2
COc1cccc(Nc2nc(-c3ccc(O)cc3)cs2)c1
  A: 11363; B: 0; C: 16; D: -13; E: -41; F: 2.3; G: -17
O=C(N/N=C/c1ccc(Cl)c([N+](=O)[O-])c1)c1ccc2nc[nH]c2c1
  A: 2851; B: x; C: x; D: x; E: -24; F: x; G: 8
Cc1ccc(-c2nc(CSc3nc4ccccc4c(=O)n3CCO)cs2)cc1
  A: 2084; B: 3; C: 5; D: 9; E: -25; F: 1.4; G: 2
CN(C)CC/C=C1/c2ccc(F)cc2Sc2ccc(Cl)cc21
  A: x; B: x; C: x; D: -11; E: x; F: -4.5; G: 1
Cc1ccccc1NC(=O)COC(=O)COc1ccc2c(c1)CCC2
  A: x; B: 0; C: -3; D: 0; E: -10; F: 4.0; G: x
CCOC(=O)N1CCN(S(=O)(=O)c2ccc(OC)c3ccccc23)CC1
  A: 3532; B: 2; C: 2; D: -10; E: -42; F: 0.5; G: 0
COC(=O)c1ccccc1NC(=O)Nc1cccc(C)n1
  A: 2449; B: 0; C: 6; D: 7; E: -34; F: 2.7; G: -3
Cc1cc(C(=O)CN2C(=O)CN(C)C2=O)c(C)n1-c1cccc(S(=O)(=O)N2CCOCC2)c1
  A: 3260; B: 1; C: -2; D: 2; E: -1; F: 4.0; G: 3
CCCc1sc(N/N=C/c2ccccn2)nc1-c1ccc(F)cc1
  A: 6092; B: x; C: x; D: x; E: 20; F: x; G: 61*
CC(C)(C)OC(=O)NN1CC(=O)N2Cc3[nH]c4ccccc4c3C[C@H]2C1=O
  A: 3504; B: 7; C: 5; D: 4; E: -6; F: 2.2; G: -2
COc1ccc(Nc2oc(-c3ccc(OC)cc3)nc2C#N)cc1
  A: 4113; B: 4; C: 0; D: 8; E: -87; F: 2.8; G: -7
CCOC(=O)c1c(C)[nH]c(C(=O)COC(=O)c2ccc(F)c(S(=O)(=O)N3CCOCC3)c2)c1C
  A: 2235; B: x; C: x; D: -6; E: -13; F: -3.5; G: 1
COc1ccc(C(=O)NCCS(=O)(=O)NC2CCCC2)cc1
  A: 5281; B: 8; C: 8; D: -5; E: -17; F: -0.3; G: -6
CCOC(=O)N1CCC(NC(=O)CCC(=O)N2CCOc3ccc(C)cc32)CC1
  A: 3551; B: 12; C: 9; D: 3; E: -9; F: -0.4; G: 1
COc1ccc(C(=O)COC(=O)CNC(=O)c2ccc(OC)cc2)cc1
  A: 4309; B: 6; C: 5; D: 6; E: -19; F: 4.2; G: 6
Cn1c(=O)cc(OCCCC(=O)NCCN2CCN(c3ccccc3F)CC2)c2ccccc21
  A: 5817; B: 1; C: 11; D: -3; E: -30; F: -10; G: 0
COc1ccc(CNC(=O)CN2C(=O)NC(c3ccccc3)(c3ccccc3)C2=O)cc1
  A: 2928; B: 5; C: 5; D: 2; E: -3; F: 1.2; G: x
O=C(COC(=O)c1ccc[n+]([O-])c1)Nc1cc([N+](=O)[O-])ccc1Cl
  A: 4083; B: 2; C: -2; D: 4; E: -5; F: -0.2; G: x
Cc1ccc(NS(=O)(=O)c2cccc(C(=O)NN3CCOCC3)c2)cc1
  A: x; B: 3; C: -2; D: 1; E: x; F: 1.0; G: -2
Cc1ccc(/C=C2\SC(=S)N(CCC(=O)N3CCOCC3)C2=O)cc1
  A: 7324; B: 19; C: 8; D: 1; E: -6; F: 4.9; G: 15
COc1ccccc1NC(=O)Cc1noc(CN(C)Cc2cccs2)n1
  A: 3372; B: x; C: x; D: 1; E: -27; F: 8.8; G: -19
CN(C)S(=O)(=O)c1ccc(N=Cc2c(C(F)(F)F)[nH]n(C)c2=O)cc1
  A: 3234; B: 4; C: 5; D: 5; E: -7; F: 1.2; G: -3
CC(=O)Nc1ccc(S(=O)(=O)n2nc(C)cc2C)cc1
  A: 3433; B: 4; C: 5; D: -2; E: -5; F: 0.6; G: -9
CCOc1ccc(NC(=O)CN(C)C(=O)Cn2c(=O)cnc3ccccc32)cc1OCC
  A: 6021; B: 7; C: 9; D: 3; E: -17; F: 3.6; G: x
COc1ccc(NC(=S)NCC(O)c2ccccc2)c(OC)c1 (centres undefined)
  A: 2607; B: -16; C: 2; D: -3; E: -14; F: -0.5; G: -6
COc1ccc(/C=C2\SC(=O)N=C2N)cc1OC
  A: 2607; B: 11; C: -1; D: 11; E: -15; F: 4.8; G: -8
O=C(O)CCCC(=O)N1CCC(C(O)(c2ccccc2)c2ccccc2)CC1
  A: 3204; B: -8; C: 2; D: 6; E: 1; F: 11; G: -2
COC(=O)CSc1nc2ccc(NC(=O)CSc3nnnn3Cc3ccccc3)cc2s1
  A: 4185; B: 14; C: 17; D: -14; E: -25; F: 2.2; G: -12
COc1ccccc1OCC(=O)Nc1cccc(S(=O)(=O)NC2=NCCCCC2)c1
  A: 5949; B: 16; C: 9; D: 4; E: 10; F: 4.5; G: 1
CCCCNC(=O)C(CC)Sc1nc2sc(C(=O)OC)c(C)c2c(=O)n1N (centres undefined)
  A: 10263; B: 1; C: -10; D: 4; E: -12; F: -0.1; G: -2
O=[N+]([O-])c1ccc(NN=Cc2cccc3ccccc23)nc1
  A: 4084; B: 20; C: 2; D: -9; E: -36; F: -19; G: x
O=C(COC(=O)c1cc(=O)[nH]c2ccccc12)Nc1ccccc1F
  A: 4209; B: 13; C: 8; D: 5; E: -1; F: 3.5; G: x
c1ccc(Nc2ccccc2)cc1
  A: 5579; B: -3; C: -5; D: -7; E: -4; F: 5.8; G: -1
CCCc1nc(NCc2ccccc2)c(C#N)c2c1CCCC2
  A: 2134; B: -5; C: -9; D: 25; E: -36; F: 2.0; G: 0
COc1ccccc1NC(=O)CC(NCc1ccccc1)C(=O)O (centres undefined)
  A: 10187; B: x; C: x; D: x; E: -26; F: x; G: -2
O=C1Cc2cc(S(=O)(=O)Nc3ccc(N4CCOCC4)cc3)ccc2N1
  A: 3709; B: -3; C: -5; D: 7; E: -12; F: 2.1; G: x
N#CCNC(=O)c1nn2c(C(F)(F)F)cc(-c3ccccc3)nc2c1Br
  A: 3715; B: 16; C: 5; D: 6; E: -27; F: 7.3; G: 9
Cc1nn(Cc2ccc(Cl)cc2)c(C)c1NC(=O)C(c1ccccc1)c1ccccc1
  A: 10691; B: 4; C: 3; D: 28; E: -13; F: -6.5; G: 21
O=C(C/C=N\OCc1ccc([N+](=O)[O-])cc1)Nc1ccccc1
  A: 4787; B: x; C: x; D: x; E: -23; F: x; G: -5
CC(=O)Oc1ccc(/C=C2/SC(=S)N(Cc3ccccc3)C2=O)cc1
  A: 3039; B: 12; C: -2; D: 64; E: -14; F: 34; G: 0
COCCCNC(=O)CN(Cc1ccc(Cl)cc1)S(C)(=O)=O
  A: 11195; B: -7; C: 7; D: 0; E: -28; F: 3.6; G: 2
COc1ccc(OC)c(S(=O)(=O)Nc2cc(OC)c(Cl)cc2OC)c1
  A: 7184; B: 10; C: -1; D: 11; E: -9; F: 1.6; G: -9

# Seven entries from above, tab-delimited:
smiles	Bead autofluor	Mtb hypoxia inh	Mtb hypoxia inh growth	ugtP null kill	PrP UTR inh	Sa RN4220 lethal	BJeLR lethal
COc1ccccc1NC(=O)CC(NCc1ccccc1)C(=O)O (centres undefined)	10187	x	x	x	-26	x	-2
CCCc1nc(NCc2ccccc2)c(C#N)c2c1CCCC2	2134	-5	-9	25	-36	2.0	0
CC(=O)Oc1ccc(/C=C2/SC(=S)N(Cc3ccccc3)C2=O)cc1	3039	12	-2	64	-14	34	0
N#CCNC(=O)c1nn2c(C(F)(F)F)cc(-c3ccccc3)nc2c1Br	3715	16	5	6	-27	7.3	9
Cc1nn(Cc2ccc(Cl)cc2)c(C)c1NC(=O)C(c1ccccc1)c1ccccc1	10691	4	3	28	-13	-6.5	21
COc1ccc(OC)c(S(=O)(=O)Nc2cc(OC)c(Cl)cc2OC)c1	7184	10	-1	11	-9	1.6	-9
c1ccc(Nc2ccccc2)cc1	5579	-3	-5	-7	-4	5.8	-1

# Further records
# Field names: A = Bead autofluor; B = Mtb hypoxia inh; C = Mtb hypoxia inh growth; D = ugtP null kill; E = PrP UTR inh; F = Sa RN4220 lethal; G = BJeLR lethal
CCOc1ccc(-n2c(Cc3cc(=O)[nH]c(=O)[nH]3)nnc2SCC(=O)Nc2nnc(C)s2)cc1
  A: 2567; B: 2; C: 0; D: 0; E: -37; F: 5.7; G: 0
COC(=O)c1cccc(N(C(=O)CNC(=O)c2ccco2)C(C(=O)NC2CCCC2)c2ccco2)c1 (centres undefined)
  A: 3321; B: x; C: x; D: -1; E: -2; F: -0.6; G: -4
Cc1ccc(OC(=O)c2ccc([N+](=O)[O-])cc2Cl)cn1
  A: 3056; B: 17; C: 12; D: 10; E: -13; F: 1.7; G: -7
COc1cccc(C2=NOC(C(=O)NCc3ccccn3)C2)c1 (centres undefined)
  A: 15818; B: 3; C: -1; D: 3; E: -10; F: 2.1; G: -2
CCC(C)N(C(=O)COC(=O)CNC(=O)c1ccccc1F)C1CCS(=O)(=O)C1 (centres undefined)
  A: 4054; B: 3; C: 4; D: 8; E: -24; F: 6.1; G: 0
COC(=O)CN1C(=O)N/C(=C/c2cc(OC)c(OC)cc2C)C1=O
  A: 4095; B: 9; C: 14; D: 11; E: -6; F: 2.5; G: -5
CC(=O)c1ccc(OCC(=O)Nc2cccc(S(=O)(=O)N3CCCC3)c2)cc1
  A: 9108; B: -9; C: 0; D: 1; E: 5; F: 3.6; G: x
COc1ccc(C(=O)N(C)CCCC2CCCC2)cc1OC1CCN(C(C)C)CC1
  A: 5861; B: 3; C: 6; D: 2; E: -3; F: 1.5; G: 3
CCN1C(=O)S/C(=C\c2ccc(N3CCOCC3)cc2C)C1=O
  A: 4179; B: -3; C: 8; D: -5; E: -115; F: 7.8; G: 4
O=[N+]([O-])c1cc(-c2ccn[nH]2)ccc1Cl
  A: 4610; B: 3; C: 7; D: -2; E: -20; F: 6.5; G: -11
C/C(CC(=O)Nc1ccc(C)c(Cl)c1)=N\NC(=O)Cc1cccs1
  A: 3361; B: x; C: x; D: x; E: 7; F: x; G: -1
Cc1ccc(NCc2cccnc2)cc1
  A: 2558; B: 5; C: 10; D: 3; E: -20; F: 4.8; G: -6
CC(C)(C)CNC(=O)c1cccc2c1C(=O)c1ccc(-c3cc4ccccc4o3)cc1S2(=O)=O
  A: 2809; B: 4; C: 7; D: -12; E: -3; F: 7.8; G: x
Cc1ccc(C(=O)NC(=S)Nc2cc(C(F)(F)F)ccc2Cl)cc1
  A: 2880; B: 5; C: 14; D: 28; E: -134; F: 4.1; G: -2
Cc1ccc(S(=O)(=O)N2CCCN(S(=O)(=O)c3ccc(C)c(C)c3)CC2)cc1C
  A: 16751*; B: x; C: x; D: x; E: -5; F: x; G: 5
Cc1ccc(C(=O)NC(=S)N2CC(C)OC(C)C2)cc1[N+](=O)[O-] (centres undefined)
  A: 23557*; B: 4; C: 4; D: 4; E: 4; F: 1.7; G: x
CC(NC(=O)C1CC12CCC2)c1ccccc1 (centres undefined)
  A: 2560; B: 18; C: 15; D: 7; E: -6; F: 3.6; G: -2
Cc1ccc(S(=O)(=O)c2c(C)nn(C(C)(C)C)c2OC(=O)c2cccs2)cc1
  A: 2544; B: x; C: x; D: 16; E: -19; F: 1.7; G: -1
